Bioassay records from PubChem.
Six1-Eya2 inh = qHTS Assay for Inhibitors of the Six1/Eya2 Interaction. AlphaScreen GST-Six1/His-Eya2 binding, biochemical; hits give low values; control for the full effect not named in the record. AID 651725, 2012. activity change, % (no concentration beside the values). 360,000 compounds, 0.56% hits. Homeobox protein SIX1 (Homo sapiens) + Protein phosphatase EYA2 (Homo sapiens), …; in the data active = activity change below about -65%; inconclusive = about -30% to -65%; inactive = above about -30%; note: % is set by controls: 0 for no effect and ±100 for the full control effect
Target sequence (O00167 whole entry, looked up): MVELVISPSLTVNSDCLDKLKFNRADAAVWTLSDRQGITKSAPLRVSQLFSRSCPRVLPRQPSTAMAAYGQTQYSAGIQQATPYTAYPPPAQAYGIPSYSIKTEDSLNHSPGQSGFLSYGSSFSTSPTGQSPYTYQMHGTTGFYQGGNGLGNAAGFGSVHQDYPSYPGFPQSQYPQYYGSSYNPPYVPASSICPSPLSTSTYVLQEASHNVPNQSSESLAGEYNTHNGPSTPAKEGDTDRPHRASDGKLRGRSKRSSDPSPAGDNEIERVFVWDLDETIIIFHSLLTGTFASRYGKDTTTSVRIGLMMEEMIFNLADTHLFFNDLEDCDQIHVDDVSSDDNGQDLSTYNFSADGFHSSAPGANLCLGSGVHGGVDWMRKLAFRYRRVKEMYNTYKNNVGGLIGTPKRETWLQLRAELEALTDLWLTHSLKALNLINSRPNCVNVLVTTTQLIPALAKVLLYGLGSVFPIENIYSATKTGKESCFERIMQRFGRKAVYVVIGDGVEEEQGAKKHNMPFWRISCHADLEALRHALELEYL
Target sequence (Q15475 whole entry, looked up): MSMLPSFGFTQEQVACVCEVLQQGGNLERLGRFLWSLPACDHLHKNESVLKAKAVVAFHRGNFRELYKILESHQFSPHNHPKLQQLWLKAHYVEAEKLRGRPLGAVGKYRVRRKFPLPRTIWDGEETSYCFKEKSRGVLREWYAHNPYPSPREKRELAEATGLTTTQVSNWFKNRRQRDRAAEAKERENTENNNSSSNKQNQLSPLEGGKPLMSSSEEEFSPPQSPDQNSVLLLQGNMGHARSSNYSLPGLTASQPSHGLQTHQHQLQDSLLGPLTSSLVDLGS
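Homogeneous AlphaScreen proximity assay pairing GST-Six1 with His-tagged Eya2 (added as 5X mix: 250 nM and 500 nM) in 50 mM Tris pH 8.0, 300 mM NaCl, 1 mM TCEP. Glutathione donor and nickel acceptor beads; 1 h, 37 °C, dark.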
PINK1 modulator = A Quantitative High throughput Screen to Identify Chemical Modulators of PINK1 Expression; PINK1 immunofluorescence, high-content cytometry, 24 h; Potency, µM (series often up to 76.6 µM), for the others: at the top dose activation (PINK1 increase), most hits filed as activators; 410,000 compounds, 0.2% hits; AID 624263, 2012; active = well fitted activation curve with a large enough effect; inconclusive = small, poorly fitted or top-dose-only effect; inactive = flat fitted curve, though single readings scatter; cell line not stated here;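 note: potency is the fitted concentration of half-maximal effect; % of control where 0% means no effect; nearly all actives have a fitted effect of over 65% in size; a mitochondrial uncoupler was the plate control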
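Stable cell line treated 24 h with compounds at 5 concentrations (CCCP controls), then fixed and immunostained for PINK1 plus nuclear and cell stains; PINK1 immunofluorescence quantified by laser-scanning microplate cytometry.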
CtBP-E1A inh = qHTS Assay for Inhibitors of the CtBP/E1A Interaction; CtBP / adenovirus E1A interaction (AlphaScreen); 340,000 compounds, 0.49% hits; activity change, % (test concentration not listed); AlphaScreen GST-E1A/His-CtBP binding, 1536-well; hits give low values; control for the full effect not named in the record; in the data active means activity change below about -65%; inconclusive means about -30% to -65%; inactive means above about -30%; note: % is set by controls: 0 for no effect and ±100 for the full control effect
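Protein mix (5X: 125 nM each GST-E1A, His-CtBP) was incubated with pinned compound 2 h at 37 deg C in dark, in 50 mM Tris pH 8.0 buffer with 300 mM NaCl. Glutathione donor and nickel acceptor beads followed; AlphaScreen signal read after 1 h.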
TRPML1 ag = qHTS for Agonists of the Human Mucolipin Transient Receptor Potential 1 (TRPML1). activation, % (test concentration not listed). 410,000 compounds, 0.12% hits. TRPML1-expressing cells, Ca2+ dye fluorescence, FDSS; host cell line not named in the record; reference of the full effect not given here. Mucolipin-1 (Homo sapiens), Q9GZU1; in the data active = activation above about 50%; inconclusive = about 30% to 50%; inactive = below about 30%; note: 0% is about no effect; the text of the record puts the active cut at 80%
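Tet-induced TRPML1-DL cells, 1,500 per well, cultured overnight, were loaded with a no-wash Ca2+ dye for 45–90 min. Calcium fluorescence was recorded on the FDSS for 110 s after compound addition, before the EC80 agonist (4 uM 54-4) was added.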
TRPML1 blocker = qHTS for Inhibitors of the Human Mucolipin Transient Receptor Potential 1 (TRPML1); Mucolipin-1 (Homo sapiens), Q9GZU1; TRPML1-inducible cells, Ca2+ dye fluorescence, FDSS; hits give low values; inhibition of EC80 agonist-evoked calcium signal; activity change, negative = inhibition, % (concentration not given with the values); 390,000 compounds, 0.02% hits; AID 624415, 2012; in the data active means activity change below about -50%; inconclusive means about -30% to -50%; inactive means above about -30%;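 note: stimulus is agonist 54-4 at its EC80 concentration; % is set by controls: 0 for no effect and ±100 for the full control effect; the text of the record puts the active cut at -80%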
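Tet-induced TRPML1-DL cells loaded with Ca8 no-wash calcium dye were read kinetically on FDSS. Compound addition was followed by EC80 agonist 54-4 (4 uM final); inhibition was read over 110 s.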
D2 ag = Beta-Arrestin HTS for Positive Allosteric Modulators of the Human D2 Dopamine Receptor: Agonists; D(2) dopamine receptor (Homo sapiens), P14416; DiscoveRx PathHunter D2 beta-arrestin, luminescence, 90 min; 100% = 57 uM dopamine signal; activation, % (no concentration beside the values); 360,000 compounds, 0.084% hits; AID 624465, 2012; in the data active = activation above about 40%; inconclusive = about 15% to 40%; inactive = below about 15%; note: compound concentration not given in the record; the text of the record calls up to 30% inactive
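DiscoveRx PathHunter D2 beta-arrestin cells (2,100/well) attached overnight, then compound-stimulated 90 min at 37 C in HBSS/10 mM HEPES/0.1% Tween-20 buffer; beta-galactosidase complementation read by luminescence after 1 h at ambient temperature. Dopamine 57 uM final (EC100) as control.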
An asterisk follows results filed as active; ? = inconclusive; . = not tested or not shown; & = joins results of further samples; [ ] = dose if it differs, or a comment.

SMILES	Six1-Eya2 inh	PINK1 modulator	CtBP-E1A inh	TRPML1 ag	TRPML1 blocker	D2 ag
O=C(CSc1nc2ccc(Cl)cc2[nH]1)Nc1ccc2c(c1)CCC2	0	?	6	1.6	4	-1.0
Cc1ccc(N2C(=O)N(CC(=O)Nc3cccc(Cl)c3)C(=O)C2C)cc1 (stereo unspecified)	-4	0.5%	-1	0.5	3	-0.7
COc1cccc(CN(C)C(=O)CCc2nnc(-c3ccsc3)o2)c1	5	-1.5%	-9	-0.6	-10	-4.6
O=C(O)c1cccc(N2CCCCS2(=O)=O)c1	4	-0.7%	12	-0.2	36	-5.1
COc1ccccc1C(=O)Nc1cc2ccccc2oc1=O	14	17%	9	0.7	-4	-14
CCOc1ccc(CCNC(=O)c2ccc(-n3c(C)cc4c3CCC(C)C4)cc2)cc1OCC (stereo unspecified)	.	2.0%	.	0.8	14	.
COc1cc(CO)c(OC)c([N+](=O)[O-])c1	-1	-0.7%	5	0.2&-0.1	15&5	-2.6
COc1ccc(C)cc1N(CC(=O)Nc1cccnc1)S(=O)(=O)c1ccc(C)cc1	0	4.8%	0	-0.4	-2	2.0
O=C(Cc1ccc2cccnc2c1)c1ccc(O)cc1O	-4	.	-5	-0.3	-2	-2.2
CC1=C/C(=C/N(C)c2ccccc2)C(=O)S1	-2	0.0%	-2	-0.4	3	-3.2
O=C(c1cccc(C(F)(F)F)c1)c1c[nH]c(C(=O)NCCCN2CCOCC2)c1	7	2.0%	1	0.6	-10	-3.3
O=C(NCCc1ccccc1)C1CCN(C2CCN(Cc3ccco3)CC2)CC1	3	0.1%	10	-0.6	-16	0.0
COc1ccc(C(=O)C2CCCN(C(=O)c3cc(C(C)C)no3)C2)cc1F (stereo unspecified)	1	0.0%	.	1.3	23	2.2
Cc1ccc(NC(=O)c2nc[nH]c2C(=O)Nc2ccc(C)cc2)cc1	9	5.3%	8	-0.3	16	0.4
CC(C)(C)OC(=O)N1CCC(c2c(C(=O)N3CCOCC3)cnn2-c2ccccc2Cl)CC1	.	-0.4%	.	1.7	-8	.
O=C(O)CC1c2ccccc2CCN1S(=O)(=O)c1ccc(F)cc1 (stereo unspecified)	3	-0.1%	7	-0.8	-3	-1.3
Cc1cccc(N(CC(=O)NC2CCCCC2)C(=O)CCC(=O)Nc2nccs2)c1	4	18%	6	-0.3	11	4.4
COc1ccccc1CCNC(=O)C1CCN(c2nnc(C)c3c(C)n(-c4ccc(C)cc4)nc23)CC1	21	0.1%&-0.9%	.	2.5&3.2	18&50	-3.4
Cc1c(NC(=O)NC(=O)c2ccc(F)cc2)c(=O)n(-c2ccccc2)n1C	7	0.4%	2	-1.9	-1	0.2
Cc1ccc(CNC(=O)c2cccc(-n3cnnn3)c2)cc1	8	11%[38.3 µM]	14	-0.6	28	-0.5
CC(C)C(NC(=O)c1ccco1)C(=O)OCC(=O)N1CC(=O)Nc2ccccc21 (stereo unspecified)	6	-0.8%	3	0.0	1	8.0
O=C(Nc1ccc(Cl)cc1)Nc1ccc2c(c1)N1CCN=C1S2	-8	10.0%	-10	0.6	2	6.9
CC(=O)Nc1ccc(NC(=O)c2ccc(CSc3ccccc3)o2)cc1	8	-1.2%	-1	0.9	17	-1.8
O=C1N[C@@H](Cc2c[nH]c3ccccc23)COC(=O)[C@@H](Cc2ccc(F)cc2)CC/C=C/C[C@@H]1CC(=O)N(CCO)Cc1ccccc1	-18	1.7%	-16	-0.5	5	3.2
COC(=O)c1ccc(C(=O)OC)c(NC(=O)C2CC(=O)N(C3CCCC3)C2)c1 (stereo unspecified)	1	-0.2%	-1	0.3	4	-2.3
Cc1oc2ncn(CC(C)C)c(=O)c2c1C(=O)NCCCN1CCCCC1	.	0.5%	.	-0.4	-1	.
CCOc1ccccc1NC(=O)c1cccc2c1C(=O)N(C1CCCCC1)C2	2	0.9%&0.6%	-8	0.2&-0.3	27&1	-0.8
CCCCn1c(N)c(N2CCOCC2)c(=O)n(CC(=O)NCCc2ccccc2)c1=O	-3	-1.0%	8	-0.5	4	-3.1
COc1ccc(C(=O)NNC(=O)CCn2nnc(-c3ccc(C)cc3)n2)cc1OC	5	0.6%	11	1.3	24	-0.1
CCOC(=O)Cn1c(=NC(=O)CC)sc2c(C)cc(C)cc21	10	-0.1%	-1	0.0	44	-0.7

Seven of these compounds in a different format.
smiles | Six1-Eya2 inh | PINK1 modulator | CtBP-E1A inh | TRPML1 ag | TRPML1 blocker | D2 ag
Cc1ccc(CNC(=O)c2cccc(-n3cnnn3)c2)cc1 | 8 | 11%[38.3 µM] | 14 | -0.6 | 28 | -0.5
Cc1c(NC(=O)NC(=O)c2ccc(F)cc2)c(=O)n(-c2ccccc2)n1C | 7 | 0.4% | 2 | -1.9 | -1 | 0.2
O=C(O)c1cccc(N2CCCCS2(=O)=O)c1 | 4 | -0.7% | 12 | -0.2 | 36 | -5.1
CC(=O)Nc1ccc(NC(=O)c2ccc(CSc3ccccc3)o2)cc1 | 8 | -1.2% | -1 | 0.9 | 17 | -1.8
CC(C)(C)OC(=O)N1CCC(c2c(C(=O)N3CCOCC3)cnn2-c2ccccc2Cl)CC1 | . | -0.4% | . | 1.7 | -8 | .
O=C(NCCc1ccccc1)C1CCN(C2CCN(Cc3ccco3)CC2)CC1 | 3 | 0.1% | 10 | -0.6 | -16 | 0.0
CCCCn1c(N)c(N2CCOCC2)c(=O)n(CC(=O)NCCc2ccccc2)c1=O | -3 | -1.0% | 8 | -0.5 | 4 | -3.1

(cont.)
SMILES	Six1-Eya2 inh	PINK1 modulator	CtBP-E1A inh	TRPML1 ag	TRPML1 blocker	D2 ag
CCOC(=O)Cc1csc(NC(=O)c2cccnc2)n1	2	0.6%[38.3 µM]	0	-0.5	7	-1.6
COc1ccc(-c2nc3ncccc3o2)cc1NC(=O)c1cccs1	0	2.3%	0	-0.5	6	-6.0
OC1(C#CCN2CCCC2)CCCCC1	4	0.1%	.	0.1	14	-1.3
CN(C)c1nc(C(N)=O)nc(N2CCOCC2)n1	5	-1.4%	2	-0.4	-4	-1.4
COc1cc(C(=O)OCC(=O)Nc2sccc2C(N)=O)cc(OC)c1OC	-10	9.2%	1	2.5	3	11
CS(=O)(=O)Nc1ccc(C(=O)NC2CCCC2)cc1	4	-0.3%	4	-0.2	-9	0.1
CCSc1nc2[nH]ncc2c(=O)[nH]1	9	-2.0%	2	0.0	8	-3.6
Cc1ccc(CNC(=O)c2cn(C)c3ccc(S(=O)(=O)N(C)C4CCCCC4)cc3c2=O)cc1	.	2.8%	.	-0.2	-5	.
COc1ccc(CNC(=O)c2cc3c(=O)n4cccc(C)c4nc3n(CC3CCCO3)c2=N)cc1 (stereo unspecified)	1	3.1%	-5	0.6	-13	-1.7
Cc1cccc(CS(=O)(=O)Cc2ccc(C(=O)NCCCN3CCCC3)o2)c1	-5	1.9%[38.3 µM]	0	-0.2	1	-3.7
Cc1ccc(CNC(=O)C2CCCN(c3nc4ccsc4c(=O)s3)C2)cc1 (stereo unspecified)	-12	9.0%	10	-0.6	10	-0.4
O=C(c1ccc2ccccc2c1)N1CCCCC1	0	-0.2%	5	0.1	14	6.1
CCOC(=O)C(C)Sc1nnc(Cc2cc(=O)[nH]c(=O)[nH]2)n1-c1ccc(Cl)cc1 (stereo unspecified)	7	-0.7%	4	0.7	13	-3.5
O=C(Nc1ccc2c(c1)OCCO2)C1c2ccccc2OCC(=O)N1CCc1ccccc1 (stereo unspecified)	-3	0.7%	4	-0.4	.	.
O=C(Cn1cc(S(=O)(=O)c2ccc(F)cc2)c(=O)c2cc3c(cc21)OCO3)Nc1ccccc1	.	1.6%	.	1.6	-15	.
Cc1ccc(C(=O)C2CCN(C(=O)c3ccc(C)cc3)CC2)cc1	-21	1.5%	-8	.	.	-0.5
O=C(CN1C(=O)c2cccc([N+](=O)[O-])c2C1=O)NCc1ccccc1	1	0.3%	5	0.2	-7	5.2
O=C(NCCCc1nc2ccccc2n1Cc1ccccc1Cl)C1CCCCC1	.	0.5%	.	2.0	6	.
Cc1ccccc1CN1CCCC(C(=O)Nc2ccc(-c3ccn[nH]3)cc2)C1 (stereo unspecified)	-9	6.2%	-6	0.6	1	-1.3
CC1=C(C(N)=O)C(c2ccc(C)o2)C(C(N)=O)=C(C)N1	1	-2.1%	0	2.1	-9	0.0
Cc1cc(C)nc(NC(=O)/C=C/c2cccs2)c1	1	.	4	1.6	5	-2.3
COc1ccc(-c2cc(=O)oc3c(O)c(O)ccc23)cc1	-21	-0.9%	-6	0.1	11	0.2
Cc1cc2c(=O)n(Cc3ccco3)c(SCC(=O)N3CCCc4ccccc43)nc2s1	-9	.	12	2.4	-10	-1.5
Cc1ccc2nc(CN3CCN(S(=O)(=O)c4ccc(C(C)C)cc4)CC3)oc2c1	.	-0.4%	.	25	-12	.
COc1cc(SC)ccc1C(=O)Nc1ccccc1C#N	-1	0.7%	-1	3.1	16	-0.7
CSc1ccc(CCCCCCOC(=O)C(C)(C)C)cc1	14	3.5%	10	-0.1	11	-5.5
O=C(c1cnn(-c2ccccc2)c1)c1cc(Br)ccc1O	-1	7.8%	18	1.7	43	0.7
CCOC(=O)N1CCN(S(=O)(=O)N2CCCC(C(=O)NCCCN3CC(C)CC(C)C3)C2)CC1 (stereo unspecified)	0	-1.6%	0	-0.8	-5	-10
Cc1ccc(Cl)cc1NC(=O)CCS(=O)(=O)c1ccc2c(c1)n(C)c(=O)c(=O)n2C	5	0.9%&2.6%	-24	0.1&-0.6	-1&-1	-1.4
N#Cc1ccccc1CSc1nnc(-c2ccncc2)o1	-16	3.8%	0	-0.3	76	8.3
COc1ccc(-n2nnc(-c3nc(-c4cccs4)no3)c2N)cc1OC	.	0.0%	.	-0.6	11	.
CC(/C=C/c1ccco1)=N/NC(=O)c1ccc(C)nc1	-4	3.0%	10	-0.4	-9	5.4
CCN(C(=O)Cn1cnc2cc([N+](=O)[O-])ccc2c1=O)C1CCS(=O)(=O)C1 (stereo unspecified)	-1	-0.6%	-20	0.1	13	12
